Choline anaer gr = growth inhibitors of anaerobic choline-fed gram-negatives, minimal medium, absorbance; calls only; actives 0.2% (n = 55,000); Gram-negative bacterium anaerobic choline minimal medium; active compounds read low; many inactives read as strong as hits in the columns shown;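 active = growth z-score on choline under -2 at 7 or 20 h with little or no fall on glycerol, limits in tiers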;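 also: stock transfer was 300 nL into about 50 µL; the organism is E. coli; final concentration not given here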
Choline anaer gr early = second read-out of Choline anaer gr, no call of its own (marks repeat the call); z-score; measured here: choline growth z-score, timepoint 1;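 score of optical density at 7 h as mean of two plates; lower means less growth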
* marks the source's active call; other numbers are inactive results; i = inactive; & = joins results of further samples. Not all compounds are listed (hit frequency here may not be typical).

Order of values – Choline anaer gr	Choline anaer gr early
> CCOc1ccc(-c2cc(=O)c3cc(NC(=O)Nc4ccc(Cl)cc4)ccc3o2)cc1
→ i	0.02
> O=C(Cc1csc(NC(=O)c2ccccc2)n1)NCc1ccccc1Cl
→ i	-0.55
> COc1ccccc1NC(=O)c1cc2c(oc1=O)CC(C)(C)CC2=O
→ i	0.73
> CCOC(=O)c1[nH]c(C)c(S(=O)(=O)N2CCCCC2)c1C
→ i	-0.73
> CN(Cc1ccccc1)C(=O)Nc1ccc2c(c1)N(Cc1ccccc1)C(=O)c1ccccc1S2
→ i	1.4
> CCOC(=O)c1c(NC(=O)C(C)n2c(-n3nc(C)cc3C)nc(C)c(C)c2=O)sc2c1CCC2 (stereo not given)
→ i	-0.29
> CC(C)Oc1ccc(C2CC(=O)NNC2=O)cc1 (stereo not given)
→ i	0.62
> O=C(CC1CCN(C(=O)C2CCCCC2)CC1)NCCN1CCCCC1
→ i	-0.21
> CCn1nc(C)c(CCN(C)C(=O)Nc2ccc3c(c2)OCO3)c1C
→ i	0.16
> Cc1ccc(S(=O)(=O)Nc2ccc(N3CCCS3(=O)=O)cc2)cc1C
→ i	-0.47
> O=C(NCC1CCCO1)c1cccn1-c1cccnc1 (stereo not given)
→ i	-0.53
> CCN1C(=O)c2c(C(=O)NCCN3CCOCC3)ncn2CC1(C)C(=O)NC1CCCC1 (stereo not given)
→ i	-0.51
> CC(C)[C@H](N)C(=O)OCC(CO)OCn1cnc2c(=O)[nH]c(N)nc21 (stereo not given in full)
→ i	-0.15
> C=Cc1ccc(Cn2nc3n(CCc4ccccc4)c(=O)c4ccccc4n3c2=O)cc1
→ i	0.76
> CCN(CC)CCn1c2ccccc2n2cc(-c3ccc(F)cc3)nc12
→ i	0.38
> C=CCNC(=O)C1CCCN1C(=O)c1ccc(NS(=O)(=O)c2ccc(C3CCCCC3)cc2)cc1 (stereo not given)
→ i	-0.42
> CN(C)CCN(Cc1ccccc1)c1ncnc2onc(-c3cccc(Cl)c3)c12
→ i	0.39
> CCc1ccc(C2CC(=O)Nc3n[nH]c(C)c32)cc1 (stereo not given)
→ i	-1.5
> COc1ccc(NC(=O)C2CCCN(c3nc4cccnc4s3)C2)c(OC)c1 (stereo not given)
→ i	0.27
> O=C(NCCn1cnc2cc(C(=O)N3CCCC3)ccc21)Nc1ccc(Cl)cc1
→ i	-0.69
> COc1ccccc1N1CCN(CCN(C(=O)c2ccc(F)cc2)c2ccccn2)CC1
→ i	-0.05
> CC(C)CCNC(=O)c1ccc(-c2cc(N3CCCC3)ncn2)cc1
→ i	0.05
> CC(C)Cn1c(=O)c2sccc2n2c(SCc3ccc(F)cc3)nnc12
→ i	-0.33
> O=C(NCc1csc(-c2cccs2)n1)[C@H]1CSCN1C(=O)C1CCCO1 (stereo not given in full)
→ i	-0.41
> Cc1c(N2CCC(C(=O)Nc3ccc(F)cc3)CC2)c(=O)n(C)c(=O)n1C
→ i	0.06
> Cc1ccc2nc(NC(=O)CSc3nc4c(c(=O)n3-c3ccccc3)SCC4)sc2c1
→ i	0.54
> CC(=O)NCc1nc(-c2ccccc2Cl)no1
→ i	-1.6
> Cc1cc(C)n2ncc(-c3ccc(C)c(S(=O)(=O)NCc4ccc(F)cc4Cl)c3)c2n1
→ i	-2.2
> CC(C)CC(=O)N1c2ccccc2NC2=C(C(=O)CC(C)(C)C2)C1c1ccc(Cl)cc1 (stereo not given)
→ i	-1.1
> Cc1occc1-c1nnc2sc(COc3ccccc3)nn12
→ i	-1.2
> CCCc1cc(C2CCCN2Cc2ccc(O)c(OCC)c2)no1 (stereo not given)
→ i	0
> COc1ccccc1C1Nc2ccc(Br)cc2[C@H]2OCCC[C@@H]12 (stereo not given in full)
→ i	2.6
> CC(C)(Oc1ccc(Cl)cc1)C(=O)O
→ i	0.13&0.64&0.57
> COc1cccc(Cc2nc3ccccc3nc2SCC(=O)NCC2CCCO2)c1 (stereo not given)
→ i	0.32
> Cc1csc(-c2cc(S(=O)(=O)N3CCN(c4ccccc4)CC3)c(C)s2)n1
→ i	1.3
> CC(=O)NCCc1csc(-c2cccc(F)c2)n1
→ i	0.37
> CCOc1ccc(NC(=O)c2cc3c(C)nn(-c4ccc(Cl)cc4)c3s2)cc1
→ i	-1.7
> Cc1cccc(-c2cnc(N3CCC(C(=O)NC4CCCc5ccccc54)CC3)nc2)c1 (stereo not given)
→ i	0.44
> CC(C)CNC(=O)CCn1c(=O)c2ccccc2n2c(=O)n(CC(N)=O)nc12
→ i	-0.77
> CCCc1c(C)nc2c(-c3ccc(OC)cc3)c(C)[nH]n2c1=O
→ i	1.6
> CCOC(=O)c1ccc(NC(=O)Nc2cc(F)c3nc(N4CCCC4)ccc3c2)cc1
→ i	-0.52
> CCOC(=O)c1cc2n(n1)CC(C)(C(=O)NCCC(C)C)N(c1ccc3c(c1)OCO3)C2=O (stereo not given)
→ i	0.14
> Cc1cc(C2CCCN2S(=O)(=O)c2ccc(Cl)s2)no1 (stereo not given)
→ i	-0.53
> CCC(C)NS(=O)(=O)c1cc2c(cc1C)N(Cc1noc(C3CC3)n1)C(=O)CO2 (stereo not given)
→ i	-0.14
> CN1C(=O)C(C)(C)c2cc(S(=O)(=O)N3CCC(C(=O)NC4CCCCC4)CC3)ccc21
→ i	-0.73

Not a retest: 24 of the compounds above.
Order of values – Choline anaer gr	Choline anaer gr early
> CCOc1ccc(-c2cc(=O)c3cc(NC(=O)Nc4ccc(Cl)cc4)ccc3o2)cc1
→ i	0.02
> O=C(Cc1csc(NC(=O)c2ccccc2)n1)NCc1ccccc1Cl
→ i	-0.55
> COc1ccccc1NC(=O)c1cc2c(oc1=O)CC(C)(C)CC2=O
→ i	0.73
> CCOC(=O)c1[nH]c(C)c(S(=O)(=O)N2CCCCC2)c1C
→ i	-0.73
> CN(Cc1ccccc1)C(=O)Nc1ccc2c(c1)N(Cc1ccccc1)C(=O)c1ccccc1S2
→ i	1.4
> CCOC(=O)c1c(NC(=O)C(C)n2c(-n3nc(C)cc3C)nc(C)c(C)c2=O)sc2c1CCC2 (stereo not given)
→ i	-0.29
> CC(C)Oc1ccc(C2CC(=O)NNC2=O)cc1 (stereo not given)
→ i	0.62
> O=C(CC1CCN(C(=O)C2CCCCC2)CC1)NCCN1CCCCC1
→ i	-0.21
> CCn1nc(C)c(CCN(C)C(=O)Nc2ccc3c(c2)OCO3)c1C
→ i	0.16
> Cc1ccc(S(=O)(=O)Nc2ccc(N3CCCS3(=O)=O)cc2)cc1C
→ i	-0.47
> O=C(NCC1CCCO1)c1cccn1-c1cccnc1 (stereo not given)
→ i	-0.53
> CCN1C(=O)c2c(C(=O)NCCN3CCOCC3)ncn2CC1(C)C(=O)NC1CCCC1 (stereo not given)
→ i	-0.51
> CC(C)[C@H](N)C(=O)OCC(CO)OCn1cnc2c(=O)[nH]c(N)nc21 (stereo not given in full)
→ i	-0.15
> C=Cc1ccc(Cn2nc3n(CCc4ccccc4)c(=O)c4ccccc4n3c2=O)cc1
→ i	0.76
> CCN(CC)CCn1c2ccccc2n2cc(-c3ccc(F)cc3)nc12
→ i	0.38
> C=CCNC(=O)C1CCCN1C(=O)c1ccc(NS(=O)(=O)c2ccc(C3CCCCC3)cc2)cc1 (stereo not given)
→ i	-0.42
> CN(C)CCN(Cc1ccccc1)c1ncnc2onc(-c3cccc(Cl)c3)c12
→ i	0.39
> CCc1ccc(C2CC(=O)Nc3n[nH]c(C)c32)cc1 (stereo not given)
→ i	-1.5
> COc1ccc(NC(=O)C2CCCN(c3nc4cccnc4s3)C2)c(OC)c1 (stereo not given)
→ i	0.27
> O=C(NCCn1cnc2cc(C(=O)N3CCCC3)ccc21)Nc1ccc(Cl)cc1
→ i	-0.69
> COc1ccccc1N1CCN(CCN(C(=O)c2ccc(F)cc2)c2ccccn2)CC1
→ i	-0.05
> CC(C)CCNC(=O)c1ccc(-c2cc(N3CCCC3)ncn2)cc1
→ i	0.05
> CC(C)Cn1c(=O)c2sccc2n2c(SCc3ccc(F)cc3)nnc12
→ i	-0.33
> O=C(NCc1csc(-c2cccs2)n1)[C@H]1CSCN1C(=O)C1CCCO1 (stereo not given in full)
→ i	-0.41

(more compounds)
SMILES,Choline anaer gr,Choline anaer gr early
CCCn1c(=O)[nH]c2cc(-c3noc(/C=C/c4ccccc4OC)n3)ccc21,i,-0.38
CCOc1ccc(Oc2nc(C)nc3sc4c(c23)CCCC4)cc1,i,-0.1
Cc1c(C)n(CC(C)C)c2ncn3nc(CSc4nc5ccccc5o4)nc3c12,i,0.47
Cc1nn(-c2ccccc2)c(C)c1CCc1nn2c(-c3cccnc3)nnc2s1,i,-1.1
Cc1ccc(S(=O)(=O)N2CCN(c3cc(=O)n4nc(-c5ccccc5)sc4n3)CC2)cc1,i,-2.1
COc1cccc(CCc2ccccc2OCC[C@@H]2C[C@@H](O)CN2C)c1,i,-0.11
CCCNS(=O)(=O)c1ccc(OC)c(-c2noc(C(C)(C)C)n2)c1,i,-0.91
CN(C)c1ccc(N2C=C(C#N)S(=O)(=O)c3ccc(F)cc32)cc1,i,0.41
Cc1ccc2c(c1)NC(=O)c1cc(S(=O)(=O)N3CCCC3)c(Cl)cc1O2,i,-0.12
CCN(CC)S(=O)(=O)c1ccc2c(c1)nc(C(F)(F)F)n2CCC(=O)Nc1ccc(C)cc1,i,-0.64
OC(CN1CCN(c2cccc(Cl)c2)CC1)c1ccc2c(c1)CCN2 (stereo not given),i,-0.08
c1ccc(CCCc2nn3c(-c4cccnc4)nnc3s2)cc1,i,0.34
O=C(Cn1c(=O)n(C2CC2)c(=O)c2nscc21)NCCC1=CCCCC1,i,-1.1
CCCn1c(=O)c2ccccc2n2c(=O)n(CC(=O)Nc3ccc(CC)cc3)nc12,i,-0.84
COc1cc2c(cc1OC)CN(C(=O)c1ccc(N3C(=O)CCS3(=O)=O)cc1Cl)CC2,i,-0.23
O=C(Nc1ccc(F)c(Cl)c1)N1CCCCCC1c1cccs1 (stereo not given),i,0.87
CCOC(=O)c1c(CCC(=O)O)c2ccccc2n1C,i,-1.4
CC(C)OCCCNC(=O)C1CCCN(c2ncnc3c2oc2ccccc23)C1 (stereo not given),i,-1.2
CC(C)OCCCn1c(=O)c2cc(Cl)ccc2n2c(SCc3ccc(Cl)cc3)nnc12,i,-2.1
